Bioassay records (PubChem)
Sa ugtP lethal: growth inhibition of ugtP-null S. aureus, primary screen, RN4220 ugtP deletion, OD600; 16 h; some inactives read as strong as hits; growth inhibition, % (concentration not given with the values); hit rate 0.54% among 330,000; AID 1259309, 2017;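 active = z-score under -3 and OD600 up to 0.15 on both plates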;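 also: plate controls were untreated wells for no effect and antibiotic for full effect; wells of about 80 µL received 100 nL stock; the first replicate is given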
PrP 5UTR inh: inhibition of PrP 5' UTR reporter expression. cell-based PrP 5' UTR mRNA reporter, plate reader. inhibition, % (concentration not given with the values). hit rate 0.35% among 340,000. AID 488862, 2010;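 active = every replicate at 50% or more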;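 also: 0 = median of the neutral control wells; tested in H4 reporter cells; numbers are from one replicate; inactives centre near -14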
RN4220 kill: growth inhibition of S. aureus RN4220, primary screen, OD600; 16 h; inhibition, % (test concentration not listed); hit rate 0.33% among 330,000; AID 1259311, 2017;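 active = z-score of -3 or lower and OD600 up to 0.18 on both plates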;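 also: plate controls were untreated cells for no effect and reference antibiotic for full effect; stock transfer was 100 nL into about 80 µL; one replicate is shown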
Mtb hypoxia rep: PubChem AID 1159583; M. tuberculosis hypoxia-regulated fluorescent reporter, fluorescence; fluorescence inhibition, % (no concentration beside the values); hit rate 0.1% among 300,000;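 active = 35 to 45% if threefold the growth effect, above 45% if 1.5-fold the growth effect; inactive = the rest, general growth blockers included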;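 also: wells of about 50 µL received 100 nL stock; 0% = vehicle wells and 100% = reference inhibitor wells; whole bacteria with a GFP reporter of the hypoxia response; strong numbers were not always called active; many hits fall short of the cut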
BJeLR viability: MLPCN primary cell-based screen for lethality selective to Ras in HRASV12 cells | BJeLR (HRASV12) viability, CellTiter-Glo ATP luminescence, 48 h; reference of the scale not given here | inhibition, % (concentration not given with the values) | hit rate 0.17% among 300,000;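 active = replicate mean above 50%; inconclusive = above 50% but judged a plate artefact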;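 also: 50 nL library stock added to about 25 µL; numbers are from one replicate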
Autofluor counter: counter-screen for toxin protease inhibitors: compound fluorescence. fluorescence intensity (test concentration not listed). compound autofluorescence counterscreen, microsphere flow cytometry; stronger effect = higher value. hit rate 3.1% among 360,000. AID 624483;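 active = at least 3 SD above the mean of all compounds, about 16000 in these data; inconclusive = too few beads counted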;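 also: 100 nL of 1 mM stock went into each well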
Mtb hypoxia rep growth: also measured in Mtb hypoxia rep; calls as there; growth inhibition, %; measured here: M. tuberculosis growth (absorbance);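 0% = vehicle and 100% = reference antibiotic; read after six days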
* hit, by the source's call; u = inconclusive; x = not tested or not shown; & = joins results of further samples. Random draw from the library; 3.9% or so of the library scored in one or more.

The opening five entries (preview)
SMILES	Sa ugtP lethal	PrP 5UTR inh	RN4220 kill	Mtb hypoxia rep	Mtb hypoxia rep growth	BJeLR viability	Autofluor counter
CC(C)C1COS(=O)(=O)NC1CC(=O)SC(C)(C)C (stereo not given)	-1.6	-17.5	1.0	-13.6	4.5	2.1	3896
CN(C(=O)c1cccc(NC(=O)Cc2cccc(NC(=O)C3CCN(C(=O)C4CCC4)CC3)c2)c1)C1CCC1	7.4	-5.1	0.6	-6.5	-6.8	x	3751
C=CCn1c(=C(C#N)c2nnc3n2CCCCC3)sc(=Cc2ccc(O)cc2)c1=O	-7.3	x	0.7	3.0	-9.9	x	x
Cc1ccc(S(=O)(=O)n2nc(C)c(C#N)c2N)cc1	2.4	-32.5	4.2	7.6	4.5	5.2	2174
CCOC(=O)C1CCN(C(c2ccccn2)c2c(C)[nH]c3ccccc23)CC1 (stereo not given)	2.9	-12.4	11.6	-13.1	5.7	-8.3	3496

The list itself, previewed entries included:
SMILES	Sa ugtP lethal	PrP 5UTR inh	RN4220 kill	Mtb hypoxia rep	Mtb hypoxia rep growth	BJeLR viability	Autofluor counter
CC(C)C1COS(=O)(=O)NC1CC(=O)SC(C)(C)C (stereo not given)	-1.6	-17.5	1.0	-13.6	4.5	2.1	3896
CN(C(=O)c1cccc(NC(=O)Cc2cccc(NC(=O)C3CCN(C(=O)C4CCC4)CC3)c2)c1)C1CCC1	7.4	-5.1	0.6	-6.5	-6.8	x	3751
C=CCn1c(=C(C#N)c2nnc3n2CCCCC3)sc(=Cc2ccc(O)cc2)c1=O	-7.3	x	0.7	3.0	-9.9	x	x
Cc1ccc(S(=O)(=O)n2nc(C)c(C#N)c2N)cc1	2.4	-32.5	4.2	7.6	4.5	5.2	2174
CCOC(=O)C1CCN(C(c2ccccn2)c2c(C)[nH]c3ccccc23)CC1 (stereo not given)	2.9	-12.4	11.6	-13.1	5.7	-8.3	3496
COc1cccc(C2=CC(=O)CC(C)(C)C2)c1	0.2	-9.4	8.7	5.1	4.9	x	3551
O=C1N/C(=N/N=C/c2ccccc2O)SC1Cc1ccc(F)cc1 (stereo not given)	x	-2.7	x	x	x	0.2	5233
Cc1cccc(NC(N)=S)c1	-7.9	3.9	0.3	2.8	7.4	7.2	10141
N#CCCn1[nH]c(-c2ccccc2)cc1=O	-2.6	-35.6	10.5	5.1	2.6	11.5	2393
Cc1ccc(C(=O)Cn2nnc3ccccc32)cc1C	1.5	-120.8	4.1	7.0	-0.1	2.6	9889
CC1(C(=O)N/N=C/c2cc3c(cc2Br)OCO3)CC1(Br)Br (stereo not given)	x	-4.5	x	x	x	10.5	5465
CCCCC(=O)Nc1ccc(C(=O)NCCc2ccc(S(N)(=O)=O)cc2)cc1	3.6	-17.9	4.0	-1.1	-1.5	3.8	2547
O=S1(=O)C=C(SCc2ccc(Cl)c(Cl)c2)Nc2ccccc21	-21.4	-18.4	-3.7	x	x	-0.3	2851
Nc1nonc1-n1nnc(C(=O)N/N=C/c2ccc(OCc3ccc(F)cc3)cc2)c1COc1ccccc1	x	-12.0	x	x	x	7.0	4495
COc1ccc(Nc2nc(N)nc(CSc3nnc(C)s3)n2)cc1	3.7	-39.7	7.8	16.7	6.3	-0.2	3284
CCCCN(C)C(=O)c1cn(C)c2ccc(S(=O)(=O)N3CCC(C)CC3)cc2c1=O	14.6	-21.3	5.2	7.7	10.4	6.4	5263
CCCN=C1N(CC)C[C@@H]2[C@@H]3C(=O)N(C)C(=O)[C@@H]3[C@](Cc3ccccc3)(C(=O)OC)N12	-0.5	2.2	5.0	-6.8	-2.2	x	2907
O=C1C=CC(=O)C2C1C1(Cl)C(Cl)=C(Cl)C2(Cl)C1(Cl)Cl (stereo not given)	97.3*	-5.0	88.3*	12.8	5.2	x	3761
COc1ccc(S(=O)(=O)N(C)C)cc1NC(=O)COC(=O)c1nn(C)c(=O)c2ccccc12	3.0	3.8	1.0	-2.2	-12.1	1.6	3886
O=C(c1n[nH]c2c1CCC2)N1CCCC(Nc2cccc(F)c2)C1 (stereo not given)	-3.4	-1.7	-2.7	-3.2	2.4	7.0	5865
Cc1occc1-c1nnc(SCC(=O)N2c3ccccc3CCc3ccccc32)n1C	-1.8	-13.6	-4.9	x	x	2.7	3334
CC(NS(C)(=O)=O)C(c1cccs1)N1CCN(c2ccc(F)cc2)CC1 (stereo not given)	6.3	x	2.3	5.6	0.3	-4.7	9747
CC(=NNC(=O)c1ccncc1)c1cc2ccc(O)cc2oc1=O	5.5	x	1.8	11.0	2.9	x	x
O=C(C1CCCN1C(=O)c1cccs1)N1CCN(S(=O)(=O)c2ccc(F)cc2)CC1 (stereo not given)	1.2	-15.0	4.1	21.0	40.0	x	9318
Cn1c(=O)c2c(nc3n2CC(CO)O3)n(C)c1=O (stereo not given)	6.9	-10.4	4.0	1.3	7.5	12.3	3752

Following part
SMILES	Sa ugtP lethal	PrP 5UTR inh	RN4220 kill	Mtb hypoxia rep	Mtb hypoxia rep growth	BJeLR viability	Autofluor counter
CCOC(=O)C1=C(C)Nc2ccccc2N/C1=N\S(=O)(=O)c1cc(C(=O)O)ccc1Cl	-0.7	-13.7	4.1	12.4	2.0	x	3623
CC1CN(c2snnc2C=C2C(=O)OC(C)(C)OC2=O)CC(C)O1 (stereo not given)	10.9	-17.4	-1.6	2.1	4.9	5.3	4409
O=C1/C(=C/c2cccnc2)SC(=S)N1N1CCOCC1	15.9	-7.3	2.5	-1.8	-5.0	-2.9	5739
O=C(Nc1ccc(Cl)cc1F)c1ccccc1Br	6.0	-86.0	9.5	-2.5	0.0	10.3	2413
Cc1cc(C)c(OCCN(C)C)c(Cl)c1	2.9	-12.0	4.8	-13.2	-9.6	-3.1	4073
O=C(Nc1ccc(N2CCCC2)c(Cl)c1)c1cccs1	40.3	-117.2	3.5	1.4	-4.1	4.4	2949
O=[N+]([O-])c1c(C(Cl)Cl)nn(-c2ccc(Cl)cc2)c1N1CCCCC1	3.3	-20.4	2.3	8.6	7.0	-9.5	2074
C#CCNC(=O)C1=CC(c2cn(C(C)=O)c3ccccc23)CC(OCc2ccc(CO)cc2)O1 (stereo not given)	4.0&8.2	x	2.1&5.6	-2.5&3.7	7.2&1.3	x	x
O=C(Nc1cccc(Br)c1)c1ccc(Cl)c(S(=O)(=O)N2CCOCC2)c1	-18.3	-20.6	-3.7	-4.4	-1.1	-2.2	8038
O=C(CSc1cccc[n+]1[O-])c1cc(Cl)ccc1Cl	11.1	-45.1	7.7	x	x	3.5	4395
COc1ccccc1C(=O)N1CCc2ccccc21	12.3	-24.0	1.4	5.3	11.3	2.9	10935
COc1ccccc1/C=C/C(=O)NCCc1ccccn1	10.1	-48.3	-0.1	0.2	8.1	-5.4	5908
COc1cccc(CNC(=O)c2nnn(CC(=O)Nc3c(C)cccc3C)c2N)c1	14.2	1.2	1.1	1.1	-7.8	-0.5	4409
NS(=O)(=O)OCCCCCc1ccccc1	-3.2	-14.0	3.4	5.4	1.3	-1.8	3973
COc1ccccc1N(CC(=O)Nc1ccccc1C(=O)N1CCOCC1)S(C)(=O)=O	5.3	-22.6	1.2	20.2	3.1	-5.9	2791
Cc1ccc2cn[nH]c2c1NC(=S)NC(=O)c1ccccc1	-13.9	-29.5	2.4	0.3	11.8	0.6	9587
Cc1ccc(-c2cc(C(=O)Nc3c(C)n(C)n(-c4ccccc4)c3=O)c3ccccc3n2)cc1	0.9	-16.2	3.4	0.4	-1.3	x	3070
COc1ccc(CCNC(=O)CN(c2cc([N+](=O)[O-])ccc2OC)S(C)(=O)=O)cc1OC	-2.6	-9.2	6.3	9.5	2.6	-1.2	3398
CC1CN(S(=O)(=O)c2ccc(NC(=O)CCCN3C(=O)c4ccccc4C3=O)cc2)CC(C)O1 (stereo not given)	4.8	-24.1	3.4	6.3	5.9	-0.1	11528
O=C(CSCc1ccc(Cl)cc1)NN=Cc1c(Cl)cccc1Cl	-3.6	x	-0.8	3.5	-1.7	x	x
CC(C)(C)c1ccc2c(c1)OC(C(=O)N/N=C\c1ccccn1)CO2 (stereo not given)	x	-2.3	x	x	x	-14.4	2067
O=C(O)c1cccc(Nc2ncnc3sccc23)c1	5.3	12.9	2.8	4.8	-0.5	3.9	3748
Cc1cccc(N(CC(=O)NCCSCc2ccco2)S(=O)(=O)c2ccccc2)c1	0.0	-13.5	5.2	x	x	-13.6	4482
COCC(=O)Nc1ccc(N(C)C)cc1	5.1	-29.5	3.4	0.1	6.0	-2.7	9646
N/C(=N\OC(=O)CCCc1ccccc1)c1ccc(Br)cc1	6.8	-27.0	0.6	3.6	-2.9	12.2	5321

Additional results:
SMILES	Sa ugtP lethal	PrP 5UTR inh	RN4220 kill	Mtb hypoxia rep	Mtb hypoxia rep growth	BJeLR viability	Autofluor counter
COc1ccc(C)cc1NC(=O)c1sc2ncnc(N3CCN(c4ccccn4)CC3)c2c1C	-4.3	-16.3	-3.6	10.3	-1.8	-3.1	5978
COc1ccc(/C(C)=N/N2CCCCC2)c(O)c1	x	-17.5	x	x	x	9.6	4039
O=C(Cc1noc2ccccc12)NNC(=S)Nc1ccc(Cl)cc1	x	-20.1	x	x	x	27.5	4499
COc1ccc(C)cc1NS(=O)(=O)c1ccc(Cl)nc1	2.5	4.5	4.3	10.8	11.4	x	3951
Cc1nnc(C)n1N=Cc1cccc([N+](=O)[O-])c1	-4.3	x	7.0	14.9	8.6	x	x
O=C1C=C(c2ccc(O)cc2)CC(c2ccc3c(c2)OCO3)C1 (stereo not given)	-12.4	x	10.0	4.5	2.2	x	x
CSc1c(C#N)c(N)nc2sc(C(=O)c3ccccc3)c(N)c12	x	-5.0	x	x	x	0.0	2932
COc1cccc(-c2cc3c(=O)n(-c4ccccc4)c(=S)[nH]c3s2)c1	-10.3	-45.3	-0.7	-4.3	8.4	-2.4	4574
N#Cc1c(NC(=O)CSc2ccccn2)oc(-c2ccccc2)c1-c1ccccc1	1.3	-8.3	-8.3	x	x	-7.7	3083
CCCOc1ccc(N2C(=O)CC(N3CCN(c4ccccc4F)CC3)C2=O)cc1 (stereo not given)	10.3	-14.0	2.9	2.8	4.1	-5.4	9878
Cc1ccc(S(=O)(=O)C2(C(=O)Nc3cccnc3)CC2)cc1	6.8	-0.3	-1.5	3.8	4.3	4.0	5074
CN(C(=O)/C=C/c1cnc2ccccc2c1)C1CCCCC1	-20.4	-21.1	-4.1	7.6	4.2	-3.4	3362
Cc1ccc(S(=O)(=O)NCCC(=O)NNC(=O)c2ccccc2Cl)cc1C	5.9	-20.4	-0.3	-0.7	0.0	x	u
Cc1ccsc1C=NNc1nc2ccccc2[nH]1	-25.3	x	0.0	-2.1	-2.4	x	x
CC(C)N(C(=O)CSc1nnc(CNc2ccc(F)cc2)o1)C(C)C	0.2	-5.4	-5.5	14.2	6.1	-2.4	2613
COc1ccccc1CC(=O)O/N=C(\N)c1ccccn1	4.7	-33.2	3.2	4.7	9.7	-3.6	6556
Cn1c(=O)c2c(nc(Br)n2CC(=O)C23CC4CC(CC(C4)C2)C3)n(C)c1=O	4.3	-8.4	5.0	-0.8	3.4	3.0	16360*
COc1cccc(-c2nnc(SCC(=O)Nc3ccc4c(c3)OCCO4)n2Cc2ccco2)c1	-5.2	-6.9	-4.0	x	x	2.3	2610
Cc1cccc(C(=O)NNC(=O)Nc2ccccc2)c1	-8.1	-40.8	-4.1	-19.1	-10.7	4.0	2505
CCc1nnc(NC(=O)CN2CCN(Cc3ccccc3Cl)CC2)s1	2.9	-10.8	3.4	-6.2	8.0	28.4	3362
CC(C)(C)CC(C)(C)NC1=CC(=O)OC12CCCCC2	-1.5	-26.4	6.1	3.2	4.8	1.3	8007
O=C(NCCS(=O)(=O)NCCCc1ccccc1)c1ccccc1	5.5	-13.7	1.2	1.2	9.8	-2.1	x
COc1cc(CNC2CCCC2)cc(Br)c1OCC(=O)Nc1ccccc1C	5.5	-17.2	0.8	4.0	10.2	-1.3	x
COc1ccc(OC)c(-n2cnnn2)c1	-0.3	-14.5	1.3	-2.9	6.5	1.6	u
COc1ccc(C(=O)O)cc1S(=O)(=O)NC(C)(C)C	0.3	-19.9	2.5	11.1	9.4	7.3	3394
COc1ccc(-c2c(-c3ccc(OCC(=O)NN)cc3O)n[nH]c2C(F)(F)F)cc1	-8.1	-20.3	-6.2	3.8	0.1	-0.9	2371
N=c1sc2c(n1Cc1ccccc1)CCCC2	-3.3	-10.6	-0.5	0.4	2.4	2.7	10983
CCOc1ccc(CCNC(=O)CS(=O)(=O)Cc2nc(-c3cccc(OC)c3)oc2C)cc1	-2.5	10.9	0.8	-0.9	-1.6	3.3	4363
